Lassa entry inh: qHTS for Inhibitors of binding or entry into cells for Lassa Virus | Lassa virus pseudotype entry inhibition, cell reporter; control for the full effect not named in the record | Potency, µM (doses to about 37.9 µM), without a hit: top-dose activity change, negative = inhibition, most hits filed as inhibitors | hit rate 1.2% among 300,000; active means well fitted inhibition curve with a large enough effect; inconclusive means small, poorly fitted or top-dose-only effect, or effect the other way; inactive means flat fitted curve, though single readings scatter; tested in HEK293 cells; further: on the % scale 0 is the no-effect control and ±100 the full control effect; nearly all actives have a fitted effect of over 50% in size; luciferase read-out
RE007 growth inh: qHTS Assay for Inhibitors of the HIV-1 protein Vpr. S. pombe RE007 Vpr strain, BacTiter-Glo ATP luminescence, 24 h; control for the full effect not named in the record. Potency, µM (series often up to 92.2 µM), for inactives: at the top dose activity change, negative = less growth. hit rate 0.21% among 360,000; active = well fitted falling curve with a large enough effect; inconclusive = small, poorly fitted or top-dose-only effect; inactive = no such curve, though single readings can be large or run the other way;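 further: on the % scale 0 is the no-effect control and ±100 the full control effect; nearly all actives have a fitted effect of over 50% in size; the assay follows cell death caused by Vpr and the record does not say whether a fall means rescue or toxicity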
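Fission yeast strain RE007, carrying one chromosomally integrated HIV-1 vpr copy, was seeded at OD 0.01 in PMG+AL medium with 23 nL pinned compound. After 24 h at 30 °C and 99% humidity, viability was read by BacTiter-Glo luminescence.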
2A StopGo: High Throughput Screening for Foot and Mouth Disease Virus Antivirals; hit rate 1.2% among 410,000; Potency, µM (series often up to 57.9 µM), for the others: at the highest dose signal change, negative = less light; human cells with a luciferase reporter of 2A StopGo recoding; control for the full effect not named in the record; active = well fitted falling curve with a large enough effect; inconclusive = small, poorly fitted or top-dose-only effect; inactive = no such curve, though single readings can be large or run the other way; tested in HEK293T cells; further: on the % scale 0 is the no-effect control and ±100 the full control effect; nearly all actives have a fitted effect of over 45% in size; luciferase light after 4 h
SARS PLP yeast: qHTS of Yeast-based Assay for SARS-CoV PLP; S. cerevisiae expressing SARS-CoV PLpro, growth rescue; control for the full effect not named in the record; Potency, µM (doses to about 32.9 µM), for the others: at the highest dose activity, positive = growth rescue; hit rate 0.19% among 330,000; AID 485353, 2010; active means well fitted rising curve with a large enough effect; inconclusive means small, poorly fitted or top-dose-only effect; inactive means no such curve, though single readings can be large or run the other way; further: 0% is about no effect; nearly all actives have a fitted effect of over 55% in size; growth read by luminescence after 48 h
MARV entry inh: qHTS for inhibitors of binding or entry into cells for Marburg Virus; hit rate 1.8% among 300,000; AID 540276, 2011; Potency, µM (series often up to 37.8 µM), for inactives: at the top dose activity change, negative = inhibition, usual class: inhibitors; Marburg virus pseudotyped entry inhibition, cell reporter; control for the full effect not named in the record; about a third of the inactives were read at about 46 µM; active = well fitted inhibition curve with a large enough effect; inconclusive = small, poorly fitted or top-dose-only effect, or effect the other way; inactive = flat fitted curve, though single readings scatter; tested in HEK293 cells; about a fifth of its hits are not listed in these tables; further: on the % scale 0 is the no-effect control and ±100 the full control effect; luciferase read-out
* = called active by the depositor; ? = inconclusive; nt = not tested or not shown; [ ] = dose if it differs, or a comment. Potency means the concentration at half of the fitted maximal effect. These rows are one share of the data (hit frequency here may not be typical).

mol	Lassa entry inh	RE007 growth inh	2A StopGo	SARS PLP yeast	MARV entry inh
O=C(NCCc1ccccc1)c1ccc(Cn2c(SCc3cccc(F)c3)nc3cccnc32)cc1	?	nt	20%	2%	nt
COc1ccc(-c2cc(C(F)(F)F)n3nc(C(=O)Nc4ccc(Cl)cc4C(F)(F)F)cc3n2)cc1OC	-11%[46.1 µM]	nt	-20%	nt	-1%[46.1 µM]
Cc1ccc(-c2cc(-c3coc4ccc(Cl)cc4c3=O)c3c(n2)-c2ccccc2OC3)cc1	?	nt	1%	nt	12%[46.1 µM]
CCn1cc(C(=O)N2CCN(c3cccc(C(F)(F)F)c3)CC2)c2cc(OC)c(OC)cc2c1=O	-29%[46.1 µM]	nt	?	nt	?
COc1cccc(-c2ccnc3c(-c4ccc(F)cc4)c(C)nn23)c1	18%[46.1 µM]	nt	-4%	nt	?
COc1cc(SC)ccc1C(=O)N1CCC(Cc2ccccc2)CC1	8.2µM*	nt	-25%	nt	?
COC(=O)CC1Oc2ccc(F)cc2-n2cc(-c3ccc(C)cc3)nc21 (stereo not drawn)	?	nt	-7%	nt	-28%[46.1 µM]
CCOC(=O)COc1ccc(C)cc1C(=O)c1ccn2nc(-c3ccc(C)cc3)cc2n1	25%[46.1 µM]	nt	-20%	nt	0%[46.1 µM]
COc1ccc(C)cc1NC(=O)CC1NCCNC1=O (stereo not drawn)	-4%[46.1 µM]	nt	-8%	nt	7%[46.1 µM]
COc1ccc(-c2ccnc3c2c(=O)n(C)c(=O)n3C)cc1OC	13%[46.1 µM]	nt	-10%	nt	3%[46.1 µM]
Clc1ccc(-c2cc3ncc4c(n3n2)-c2ccccc2OC4)cc1	?	nt	73%[activator]	nt	1%[46.1 µM]
O=C(NCCn1cc(SCc2ccc(Br)cc2)c2ccccc21)c1cccs1	-60%[46.1 µM]	nt	?	nt	?
COc1ccc(-c2cc(C(F)(F)F)n3nc(C(=O)Nc4sc5c(c4C#N)CCC(C)C5)cc3n2)cc1OC (stereo not drawn)	-13%[46.1 µM]	nt	6%	nt	1%[46.1 µM]
COc1cccc(-c2ccnc3c(-c4ccccc4)c(C)nn23)c1	13%[46.1 µM]	nt	18%	nt	?
O=C(NCCn1cc(SCc2cccc(F)c2)c2ccccc21)c1cccc(C(F)(F)F)c1	0%[46.1 µM]	nt	?	nt	?

Remaining list, next part
mol	Lassa entry inh	RE007 growth inh	2A StopGo	SARS PLP yeast	MARV entry inh
COc1ccc(-c2ccnc3c(-c4ccc(F)cc4)c(C)nn23)cc1OC	-13%[46.1 µM]	nt	-22%	nt	0%[46.1 µM]
COc1cccc(C2=NN(S(C)(=O)=O)C(c3cn(-c4ccccc4)nc3-c3cccs3)C2)c1 (stereo not drawn)	18%[46.1 µM]	nt	30%	nt	-24%[46.1 µM]
CCCN1CN=C(NS(=O)(=O)c2ccc(NC(C)=O)cc2)NC1	-3%[46.1 µM]	nt	-17%	nt	-9%[46.1 µM]
CCOc1ccc(C(=O)NCCn2cc(SCC(=O)NCCc3ccc(OC)c(OC)c3)c3ccccc32)cc1	?	nt	-29%	nt	?
CCOC(=O)COc1cc(C)c(Cl)cc1C(=O)c1ccn2nc(-c3ccc(OC)cc3)cc2n1	-5%[46.1 µM]	nt	2%	nt	?
Fc1ccc2c(c1)-c1nc(-c3ccccc3)cc(-c3ccccc3)c1CO2	-7%[46.1 µM]	nt	0%	nt	-18%[46.1 µM]
Cc1cc(NC(=O)CC(C)C)cc(-c2nc3ncccc3o2)c1O	3%[46.1 µM]	nt	-1%	nt	-19%[46.1 µM]
COc1ccc(C2=NN(C(C)=O)C(c3cn(-c4ccccc4)nc3-c3cccs3)C2)cc1 (stereo not drawn)	-2%[46.1 µM]	nt	1%	nt	?
CCc1nn2c(-c3ccco3)ccnc2c1-c1ccc(F)cc1	?	nt	57%[activator]	nt	-26%[46.1 µM]
CCOc1ccccc1NC(=O)CC1C(=O)NCCN1C(=O)c1ccc(F)cc1 (stereo not drawn)	8%[46.1 µM]	nt	6%	nt	-20%[46.1 µM]
CC(=O)Nc1ccc(S(=O)(=O)NC2(C(F)(F)F)NC(=O)N(CCc3ccc(F)cc3)C2=O)cc1 (stereo not drawn)	4%[46.1 µM]	nt	-8%	nt	-4%[46.1 µM]
COC(=O)CC1Oc2ccc(Cl)cc2-n2cc(-c3ccc(C)cc3)nc21 (stereo not drawn)	-15%[46.1 µM]	nt	-7%	nt	1%[46.1 µM]
Cc1cc(O)c(-c2ccnc3cc(-c4ccccc4)nn23)cc1Cl	3%[46.1 µM]	nt	-15%	nt	-23%[46.1 µM]
COc1ccc(-c2cc3nccc(-c4cc(Cl)c(C)cc4O)n3n2)cc1	-28%[46.1 µM]	nt	-13%	nt	-12%[46.1 µM]
Cc1ccccc1-c1cc2nccc(-c3cc(Cl)ccc3O)n2n1	-6%[46.1 µM]	nt	1%	nt	-7%[46.1 µM]

Additional structures follow.
mol	Lassa entry inh	RE007 growth inh	2A StopGo	SARS PLP yeast	MARV entry inh
Cc1ccc2occ(-c3cc(-c4ccc(Cl)cc4)nc4c3COc3ccccc3-4)c(=O)c2c1	-1%[46.1 µM]	nt	0%	nt	8%[46.1 µM]
CCOC(=O)COc1ccc(F)cc1C(=O)c1ccn2nc(-c3ccc(Cl)cc3)cc2n1	9%[46.1 µM]	nt	8%	nt	5%[46.1 µM]
COc1cccc(NC(=O)CCNC(=O)Cn2cnc3ccccc3c2=O)c1	12%[46.1 µM]	nt	-12%	nt	2%[46.1 µM]
Cn1c(=O)c2c(-c3ccc(Cl)cc3)ccnc2n(C)c1=O	22%[46.1 µM]	nt	0%	nt	-1%[46.1 µM]
CCOc1cccc(C(=O)Nc2cc(C)c(O)c(-c3nc4ncccc4o3)c2)c1	-11%[46.1 µM]	nt	-12%	nt	4%[46.1 µM]
Cc1ccc(-c2cc3nccc(-c4cc([N+](=O)[O-])ccc4O)n3n2)cc1	?	nt	-11%	nt	-5%[46.1 µM]
O=C(Nc1cccc(C(F)(F)F)c1)c1cc2nc(-c3ccc4c(c3)OCO4)cc(C(F)(F)F)n2n1	-3%[46.1 µM]	nt	-6%	nt	0%[46.1 µM]
Cc1ccc2c(c1)-c1nc(-c3ccc(Cl)cc3)cc(-c3coc4ccccc4c3=O)c1CO2	-11%[46.1 µM]	nt	7%	nt	-2%[46.1 µM]
COc1ccc2nc(SCC(=O)c3c(C)[nH]c4ccccc34)nc(C)c2c1	-23%[46.1 µM]	nt	1%	nt	-1%[46.1 µM]
Cc1cc(NC(=O)c2ccc(-c3ccc(Br)cc3)o2)cc(-c2nc3ncccc3o2)c1O	2%[46.1 µM]	nt	-9%	nt	-9%[46.1 µM]
COc1ccc(C(=O)NCCn2cc(SC(C)c3ccccc3)c3ccccc32)cc1OC (stereo not drawn)	?	nt	?	nt	?
COc1ccc(CCNC(=O)CSc2cn(CCNC(=O)c3c(F)cccc3F)c3ccccc23)cc1OC	-13%[46.1 µM]	nt	?	nt	-11%[46.1 µM]
Cc1ccc(NC(=O)c2cc3nc(-c4ccc5c(c4)OCO5)cc(C(F)(F)F)n3n2)cc1Cl	-12%[46.1 µM]	nt	-17%	nt	-13%[46.1 µM]
COc1ccc(OC)c(NC(=O)Cn2ccc3ccccc3c2=O)c1	30%[46.1 µM]	nt	1%	nt	24%[46.1 µM]
O=c1c(-c2cc(-c3ccccc3)nc3c2COc2ccc(Cl)cc2-3)coc2ccc(F)cc12	20%[46.1 µM]	nt	-3%	nt	4%[46.1 µM]

(continued)
mol	Lassa entry inh	RE007 growth inh	2A StopGo	SARS PLP yeast	MARV entry inh
CCOC(=O)COc1ccc(F)cc1C(=O)c1ccn2nc(-c3ccc(C)cc3)cc2n1	22%[46.1 µM]	nt	0%	nt	2%[46.1 µM]
CCOC(=O)COc1ccc([N+](=O)[O-])cc1-c1ccnc2cc(-c3ccc(C)cc3)nn12	0%[46.1 µM]	nt	-19%	nt	-11%[46.1 µM]
COc1cc(C(=O)N2CCNC(=O)C2CC(=O)Nc2ccc(C)c(C)c2)cc(OC)c1OC (stereo not drawn)	12%[46.1 µM]	nt	4%	nt	-5%[46.1 µM]
O=C(CSc1cn(CCNC(=O)c2c(F)cccc2F)c2ccccc12)Nc1ccc2c(c1)OCCO2	-2%[46.1 µM]	nt	3%	nt	8%[46.1 µM]
CCOC(=O)c1cnc2cc(C(F)(F)F)ccc2c1N1CCN(c2ccc(F)cc2)CC1	-2%[46.1 µM]	nt	?	nt	7%[46.1 µM]
COC(=O)C1=C(C)N(C(C)C)C(=O)C1(NC(=O)c1ccccc1OC)C(F)(F)F (stereo not drawn)	4%[46.1 µM]	nt	-20%	nt	?
O=c1n(Cc2ccccc2)nc2n1-c1ccccc1OC2	0%[46.1 µM]	nt	38%[activator]	nt	?
COC(=O)CC1Oc2ccccc2-n2cc(-c3ccccc3)nc21 (stereo not drawn)	8%[46.1 µM]	nt	-28%	nt	-2%[46.1 µM]
O=C(NCCn1cc(SCc2ccc(Cl)cc2)c2ccccc21)c1cccs1	?	nt	-7%	nt	-4%[46.1 µM]
CCOC(=O)CCc1c(C)nc2c(-c3ccccc3)c(C)[nH]n2c1=O	4%[46.1 µM]	nt	-12%	nt	-19%[46.1 µM]
Cc1nc2c(-c3ccccc3)c(C)[nH]n2c(=O)c1Cc1ccc(C(C)C)cc1	?	nt	?	nt	?
CCN1CCOC(=O)C1CC(=O)Nc1ccc(Br)cc1 (stereo not drawn)	12%[46.1 µM]	nt	15%	nt	4%[46.1 µM]
O=C1COc2ccc(-c3cc(-c4ccc(Cl)cc4)c4c(n3)-c3ccccc3OC4)cc2N1	27%[46.1 µM]	nt	9%	nt	11%[46.1 µM]
COc1cccc(NC(=O)CC2C(=O)OCCN2Cc2ccccc2)c1 (stereo not drawn)	0%[46.1 µM]	nt	?	nt	15%[46.1 µM]
CCOC(=O)COc1ccc(C)cc1C(=O)c1ccn2nc(-c3ccc(F)cc3)cc2n1	8%[46.1 µM]	nt	-9%	nt	10%[46.1 µM]

Remaining list, next part:
mol	Lassa entry inh	RE007 growth inh	2A StopGo	SARS PLP yeast	MARV entry inh
Fc1ccc(-c2cc(-c3ccccc3)c3c(n2)-c2cc(F)ccc2OC3)cc1	8%[46.1 µM]	nt	-16%	nt	6%[46.1 µM]
Cc1ccccc1CSc1cn(CCNC(=O)c2cccs2)c2ccccc12	?	nt	?	nt	0%[46.1 µM]
COc1ccc(-c2cc(-c3ccccc3)nc3c2COc2ccccc2-3)cc1	?	nt	-1%	nt	3%[46.1 µM]
CCOC(=O)c1cnc2ccc(OCC)cc2c1N1CCN(c2ccccc2F)CC1	2%[46.1 µM]	nt	-7%	nt	?
O=C(CC1C(=O)OCCN1Cc1ccccc1)Nc1cccc(Cl)c1 (stereo not drawn)	1%[46.1 µM]	nt	-4%	nt	7%[46.1 µM]
Cc1ccc2c(c1)-c1ncc(C(=O)c3ccccc3O)cc1CO2	6%[46.1 µM]	nt	41%[activator]	nt	4%[46.1 µM]
COCCOC(=O)C1=C(C)NC(C)=C(C(=O)OC/C=C/c2ccccc2)C1c1cccc([N+](=O)[O-])c1 (stereo not drawn)	8.2µM*	nt	?	nt	?
O=C(COC(=O)CN1C(=O)C2CCCCC2C1=O)Nc1ccc(F)c(F)c1F (stereo not drawn)	nt	-9%	10%	0%	nt
